# MgrA DNA FP: S. aureus MgrA-DNA binding modulation. fluorescence polarization. inhibition, %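 (about 10 µg/mL by stock and volumes)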. hit rate 0.13% among 84,000. AID 602314;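 active = above 50% in either of two replicates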;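 also: 0% = protein plus DNA without compound and 100% = DNA alone without protein; higher means less MgrA bound to DNA so lower polarization; one replicate is shown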
# S aureus helic: blocks Staphylococcus aureus DNA helicase | purified S. aureus helicase, fluorescence unwinding assay; about half of the hits fall short of the stated cut | inhibition, %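 (tested at about 80 µM)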 | hit rate 0.05% among 120,000 | AID 485395;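 active = both duplicates at 50% or more, or one of them with a favoured structure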;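 also: 0% = mean of negative control wells and 100% = mean of positive control wells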
# Starred values were filed as active, the others as inactive; . = not tested or not shown; & = joins results of further samples. Not all compounds are listed. The share of hits here may be higher or lower than overall.
mol,MgrA DNA FP,S aureus helic
Nc1ccc(-c2ccc(N)cc2C(F)(F)F)c(C(F)(F)F)c1,-4.2,-8
O=C(CN1C2=NCCCN2c2ccccc21)c1cccs1,-0.7,7
CCN(CC)c1ccc(NC(=O)CN(C)Cc2ccccc2C)cc1,.,3
CN(CCCn1cnc2c([nH]c3ccccc32)c1=O)C1CCCCC1,2.0,2
CC1(C)CC(NC(=O)Cc2ccc(Cl)cc2)CC(C)(C)N1,0.2,9
Cc1nc(-c2ccccc2)sc1-c1nnc(-c2cccc3ccccc23)o1,-1.0,.
O=C(NN1CC(=O)N(C2CCCC2)C1=O)C(c1ccccc1)c1ccccc1,-0.6,-1
CC(=O)Nc1ccc(C(=O)CSc2nc3ccccc3c(=O)n2CC2CCCO2)cc1 (stereo unspecified),.,20
COc1ccc(-c2cc(C(F)(F)F)nc(SCC(=O)Nc3cn(C)nc3C)n2)cc1OC,0.1,15
CCOC(=O)C1CCN(C(=O)Cc2ccccc2OC)CC1,.,-28
O=C(O)C1Nc2ccccc2C2C=CCC12 (stereo unspecified),45,0
COC(=O)c1cc(OC)c(Br)c(OC)c1,-0.8,-8
O=C(O)CCn1ncc(=O)c2ccccc21,.,20
O=[N+]([O-])c1cc(C(F)(F)F)cc([N+](=O)[O-])c1Oc1ccc(Cl)c(Cl)c1,-0.3,.
N#CCc1cn(-c2ccccc2)nc1-c1ccccc1,0.1,-14
CCOC(=O)C(C)c1nc2ccccc2[nH]c1=O (stereo unspecified),1.2,.
Cc1ccc(S(=O)(=O)/C(C#N)=C/c2ccc(-c3ccc(Cl)cc3)o2)cc1,15,-2
c1ccn2cc(-c3ccc4c(c3)OCCO4)nc2c1,.,14
C=Cc1ccc(Cn2c(C(=O)OC)cc3occc32)cc1,.,24
CC[n+]1oc(-c2ccccc2)cc1C,1.6,5
O=C(Nc1ncc(Cc2cc(Cl)ccc2Cl)s1)c1ccco1,.,4
COc1ccc(/C(C#N)=C/c2cc(OC)c(OC)c(OC)c2)cc1,-3.4,.
CCCCN1C(=O)C2ON(c3ccccc3C)C(c3ccco3)C2C1=O (stereo unspecified),.,-64&11
O/N=C(/CCc1ccccc1)C1(O)CCCCC1,.,4
CC1(C)CC2CC(C)(CN2C(=O)CSc2cccc[n+]2[O-])C1 (stereo unspecified),.,13
CC(C)Cn1c(=S)[nH]c2cc(Cl)ccc21,.,-6
CCS(=O)(=O)CCSc1nc2ccccc2s1,.,-11
CCOc1ccccc1CNc1ncn[nH]1,.,-4
O=C(CSc1ccc(-c2ccncc2)nn1)NC1CCCC1,-0.5,5
c1ccc(Cn2nnnc2C(c2cccs2)N(Cc2cccnc2)Cc2ccco2)cc1 (stereo unspecified),-1.2,-6

# A second format for some results above:
structure: O=C(Nc1ncc(Cc2cc(Cl)ccc2Cl)s1)c1ccco1
  MgrA DNA FP: .; S aureus helic: 4
structure: COc1ccc(/C(C#N)=C/c2cc(OC)c(OC)c(OC)c2)cc1
  MgrA DNA FP: -3.4; S aureus helic: .
structure: CCCCN1C(=O)C2ON(c3ccccc3C)C(c3ccco3)C2C1=O (stereo unspecified)
  MgrA DNA FP: .; S aureus helic: -64&11

# More entries.
mol,MgrA DNA FP,S aureus helic
O=C(Cn1cncn1)N/N=C/c1ccccc1OC(=O)/C=C1\SC(=O)NC1=O,.,6
O=C(COc1ccccc1)N1CCCC2CCCCC21 (stereo unspecified),-0.8,-26
O=C(N/N=C/c1c(Sc2nnnn2-c2ccccc2)nc2ccccn2c1=O)c1ccccc1,.,-41
c1ccc(-c2nnc3ccc(SCc4cccnc4)nn23)cc1,.,-6
CSc1ccccc1Nc1ncnc(N)n1,-0.6,.
O=C1CC(c2ccc(O)cc2)Oc2cc(O)cc(O)c21 (stereo unspecified),-4.2,.
Cc1cc(C)c(S(=O)(=O)Nc2ccc3c(c2)OCO3)c(C)c1,4.5,5
CC(C)N(C(=S)Nc1ccccc1Cl)C(C)c1ccccn1 (stereo unspecified),2.8,9
CC(C)(C)c1ccc(NC(=O)NCCSCc2ccco2)cc1,-1.6,.
CCOc1ccc(NC(=S)NC(c2ccccc2)c2ccccc2)cc1,-3.5,.
Cc1ccc(C)n1-n1cnc2sc3c(c2c1=O)CCC3,.,-2
CNC(=O)c1c(O)c2cc(OC)c(OC)cc2[nH]c1=O,-0.1,-4
CCOC(=O)c1sc(NC(=O)c2ccccc2)c(SC#N)c1C,.,-17
O=C(O)COc1ccccc1/C=C1/SC(=S)N(NC(=O)c2ccco2)C1=O,.,9
Cc1ccc(C)c(N=Cc2ccccc2O)c1,0.3,.
O=C(Nc1cccc(Oc2ccc3c(c2)C(=O)NC3=O)c1)c1ccc(Br)o1,1.3,0
CC(C)C1NC(=O)N(C2CCCCC2)C1=O (stereo unspecified),.,10
CC(=O)Nc1cccc(C(=O)OC(C)C(=O)NC2(C#N)CCCCC2)c1 (stereo unspecified),.,13
Cc1nn(C)c2sc(C(=O)N(Cc3ccccn3)Cc3ccccn3)cc12,-0.2,.
CCSC1=N/C(=C\c2ccco2)C(=O)N1c1ccc(OC)c(Cl)c1,.,-17
CC(C)Oc1cccc(C(=O)O)c1,.,-4
O=C(Nc1nc2ccccc2n1Cc1ccc(Cl)cc1)C1CCCCC1,2.7,1
Cc1cc(C(=O)NN2CC(O)=C(c3nc4ccccc4n3C)C2=N)c(C)o1,.,2
COc1ccc2nc(NC(C)=O)sc2c1,.,1
O=C(OCc1ccccc1Cl)c1cc(=O)[nH]c2ccccc12,3.6,5
COc1ccc(Cn2c(CO)cnc2SCC(=O)N(C(C)C)C(C)C)cc1,.,0
COc1ccc(N(C(=O)c2cc(C)cc(C)c2)C2C=CS(=O)(=O)C2)c(OC)c1 (stereo unspecified),-0.3,10
COc1cccc(OC)c1C(=O)Nc1nnc(C(F)(F)F)s1,0.2,.
Clc1ccc(CCNc2ncnc3c2oc2ccccc23)cc1,.,-4
Cc1c(NS(=O)(=O)c2cccc3c2C(=O)c2ccccc2C3=O)c(=O)n(-c2ccccc2)n1C,-0.9,.

# Later entries:
# Fields – MgrA DNA FP, S aureus helic
> CN(C)c1ncnc2nc[nH]c12
    0.8, .
> Cc1nn(CC(=O)c2cc(C)n(CC(F)(F)F)c2C)c(=O)c(C#N)c1C
    ., -4
> C#Cc1cccc(NC(C)=O)c1
    ., -22
> c1ccc2oc(-c3ccc(NCc4ccc5c(c4)OCO5)cc3)nc2c1
    3.5, 6
> Cc1ccccc1-n1c(=O)cc(N2CCc3ccccc3C2)[nH]c1=O
    ., 9
> CCOC(=O)c1nn(-c2ccc(C)cc2)c(=O)cc1OCC(=O)N1CCN(c2ccccc2)CC1
    ., -13
> COc1ccc(N2CCN(C(=O)CCc3c(C)nc4nc[nH]n4c3=O)CC2)cc1
    ., 1
> CC(=O)NCc1ccc(C(=O)COC(=O)c2cc3c(s2)CCCCC3)o1
    ., -12
> Cc1c(O)c(=O)n(-c2ccccc2)n1C
    3.2, .
> O=C(c1ccccc1)c1cnc2cc3c(cc2c1N1CCCCCC1)OCCO3
    ., -3
> CCOC(=O)C(CC)Sc1nnc(NC(=O)c2ccc3c(c2)OCO3)s1 (stereo unspecified)
    ., 3
> CNc1cc(NC)c2ncnc3c2c1C(=O)c1ccccc1-3
    9.8, -85
> CCS(=O)(=O)c1nc2ccccc2n1CC(=O)N(C)c1ccccc1
    ., 10
> CCOC(=O)N1CCN(C(=O)c2cc(S(C)(=O)=O)ccc2Cl)CC1
    ., 3
> CCN(C(=O)CSc1nnc(C(C)(C)C)n1N)c1cccc2ccccc12
    ., 1
> CCOC(=O)c1cc2c(=O)n3cccc(C)c3nc2n(C(C)C)c1=NC(=O)c1ccc2c(c1)OCO2
    ., 26
> COc1ccc(-c2[nH]nc3c2C(c2cc(OC)c(OC)cc2OC)C2=C(CC(C)(C)CC2=O)N3)cc1 (stereo unspecified)
    ., 27
> CCC(=O)Nc1nc2cc3nc(NC(=O)CC)sc3cc2s1
    ., 13
> CC(C)(C)C(=O)/C=C1\C(=O)Nc2ccc(Br)cc21
    -0.8, .
> COCCn1c(C)cc(C(=O)COc2nc3ccccc3nc2C)c1C
    ., -17
> CC1(C)CC(NC(=O)c2cc3ccccc3oc2=O)CC(C)(C)N1
    ., -17
> Brc1ccc(-c2ncc3ccccn23)cc1
    1.2, 3
> CCOC(=O)c1cnc2sccn2c1=O
    ., 11
> COc1cc(C2CC(=O)N3CN(Cc4ccccc4)CSC3=C2C#N)cc(Br)c1O (stereo unspecified)
    ., -23
> CCOC(=O)c1nnn2c1nc(Sc1nc3ccccc3o1)c1ccccc12
    2.9, .
> O=C(O)CN1C(=O)/C(=C\c2ccc(O)cc2)SC1=S
    -0.4, .
> COc1cc(CC#N)c(OC)cc1CC#N
    -3.1, .
> CN1CCC2=C1/C(=N\OC(=O)c1ccccc1)SC2=Nc1ccccc1
    ., -6
> O=C(Nc1nc(SCc2ccc(Cl)cc2)n[nH]1)c1cccs1
    0.7, .
> N#Cc1c(N)nc2c(c1-c1ccccc1)CCCCC2
    ., 12
> CCOC(=O)c1cc(S(=O)(=O)N(CC)c2ccccc2)cn1C
    -1.4, 12
> Oc1oc(-c2ccccc2)nc1C=Nc1ccc2ccccc2c1
    0.4, -3
> CCCCn1c(=O)[nH]c(=O)c2c1nc(COC(=O)c1ccccc1)n2CCC(C)C
    ., -1
> O=C(NC1=NCCS1)c1cc2c(s1)CCCCCC2
    -2.6, -12
> COc1cc([N+](=O)[O-])c(OC)cc1SCC(=O)NNC(=O)c1cc(OC)c(OC)c(OC)c1
    3.6, .
> C[C@]12CCC3c4ccc(O)cc4CCC3C1CC[C@@H]2O (stereo partly specified)
    -2.3, .
> COC(=O)C1=C(C)N(C)C(=O)NC1c1ccc(O)c(OC)c1 (stereo unspecified)
    0.8, 11
> O=C(CNC(=O)c1ccc(-n2cnnc2)cc1)Nc1ccc(N2CCCCC2)cc1
    0.8, 5
> Cc1ccc(C)n1-c1ccsc1C(=O)O
    ., 35
> CCc1ccc(OCC(=O)Nc2ccc(OC)cc2)cc1
    1.9, 8
> O=C(NCC1CC1)c1ccccc1NS(=O)(=O)c1cc(Cl)sc1Cl
    -0.3, .
> CC(C)(C)n1ncc2c(=O)n(NC(=O)/C=C/c3ccccc3)cnc21
    ., 13
> CCc1nc(SCC(=O)N2c3ccccc3Sc3ccccc32)n[nH]1
    -5.4, -15
> C[N+]1(CC(O)COc2ccc(Br)cc2)CCCCC1 (stereo unspecified)
    ., 9
> COCCOc1cc(C)nc(N2CCOCC2)n1
    ., 21

# Complete entries, quoted from the list:
# CCc1ccc(OCC(=O)Nc2ccc(OC)cc2)cc1 across the screens: MgrA DNA FP = 1.9; S aureus helic = 8
# COCCOc1cc(C)nc(N2CCOCC2)n1 across the screens: MgrA DNA FP = .; S aureus helic = 21
# O=C(NCC1CC1)c1ccccc1NS(=O)(=O)c1cc(Cl)sc1Cl across the screens: MgrA DNA FP = -0.3; S aureus helic = .

# Following part.
# Fields – MgrA DNA FP, S aureus helic
> CC1CC(C)CN(C(=O)c2ccc3c(c2)NC(=O)CN3)C1 (stereo unspecified)
    ., 0
> CN(C)c1ccc(CNC(=O)CC(c2cccs2)n2cccc2)cc1 (stereo unspecified)
    ., 7
> CCN1CNC(=S)N(C2CCCCC2)C1
    -0.2, 0
> COc1ccc(OC)c2c1CC(C)(C)n1c(-c3ccc(Cl)cc3)nnc1-2
    3.9, 2
> CN(C(=O)CSc1nc2c(c(=O)[nH]1)CCC2)c1ccccc1
    -1.6, 19
> Cc1cc2n(c(=O)c1C(N)=O)CCO2
    -2.2, 3
> Cc1[nH]c(=O)[nH]c(=O)c1[N+](=O)[O-]
    2.1, .
> CCc1nc2ccccc2c(C(=O)O)c1C
    -0.8, -16
> O=C(c1c(F)cccc1F)N1CCN(C(=O)c2c(F)cccc2F)CC1
    -0.5, .
> Cc1cc(/C=C/C(=O)O)c(C)n1-n1cnnc1
    2.0, .
> COCC(=O)N1CCN(c2ncnc3c(-c4ccc(Cl)cc4)nsc23)CC1
    -1.4, 12
> COC(=O)c1ccc(/C=C2\SC(=S)N(NC(=O)c3ccc(Br)cc3)C2=O)cc1
    -1.1, .
> Cc1ccc(S(=O)(=O)c2nc(-c3ccccc3)oc2S(=O)(=O)c2ccc(C)cc2)cc1
    ., 19
> O=C(Nc1nc(-c2cccs2)c(C(=O)C(F)(F)F)s1)c1ccc(S(=O)(=O)N2CCCC2)cc1
    -1.2, .
> CC(C)(C)C(=O)/C=C1\NCCN\C1=C/C(=O)C(C)(C)C
    -1.3, 6
> COC(=O)NC1C2CC3CC(C2)CC1C3 (stereo unspecified)
    -0.7, -5
> CCCn1c(CCC(=O)N2CCc3ccccc3C2)nc2cccnc21
    -3.2, 12
> Cn1c(=O)n(C)c2cc(NC(=O)C(F)(F)F)ccc21
    -0.2, 4
> CCN1CCN(C(=O)C23CCC(C)(C(=O)O2)C3(C)C)CC1 (stereo unspecified)
    ., -2
> CCCCN1C(=O)C(NC(=O)c2cccnc2)(C(F)(F)F)C2=C1CC(C)(C)CC2=O (stereo unspecified)
    ., 1
> Cc1ccc(/C=C(\C#N)C(=O)C(C)(C)C)o1
    ., 16
> COc1ccc(Cl)c2sc(N3CCN(C(=O)c4ccco4)CC3)nc12
    ., -13
> O=C(Nc1cc(Cl)cc(Cl)c1)C1CCCC1
    1.9, 9
> Cc1ccccc1NC(=O)Nc1sc(NS(=O)(=O)c2ccccc2)nc1C
    1.6, 9
> CCC(C)S(=O)(=O)c1oc(-c2ccc(F)cc2)nc1S(=O)(=O)c1ccc(C)cc1 (stereo unspecified)
    ., 28
> O=c1cccc(-c2ccc(O)cc2)o1
    -2.0, 12
> Cc1ncoc1C(=O)Nc1ccc(C(C)C)cc1
    ., 7
> OC(CN1CCN(c2ccc(C(F)(F)F)cn2)CC1)c1ccccc1 (stereo unspecified)
    -1.6, .
> CC1CCCC(NC(=O)COC(=O)c2ccc(O)cc2)C1C (stereo unspecified)
    2.4, -25
> COC(=O)c1cc(SC#N)ccc1N
    -4.1, 6

# Compound activity (PubChem BioAssay)
